Screens: PubChem, National Center for Advancing Translational Sciences (NCATS)
Rango complex inh: Rango-importin beta binding inhibition | Rango CFP/YFP FRET sensor + importin beta, 45 min | Potency, µM (doses to about 92.2 µM), for inactives: top-dose inhibition of complex formation | 340,000 compounds, 0.031% hits | AID 540263; active = rising FRET ratio curve, often small or poorly fitted; inconclusive = mostly compound fluorescence or quenching in the first reads; inactive = flat curves in all reads;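 note: potency is the fitted concentration of half-maximal effect; 0% = DMSO wells and 100% = buffer wells lacking importin beta; nearly all actives have a fitted effect of over 15% in size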
Target sequence (Q14974 whole entry, looked up): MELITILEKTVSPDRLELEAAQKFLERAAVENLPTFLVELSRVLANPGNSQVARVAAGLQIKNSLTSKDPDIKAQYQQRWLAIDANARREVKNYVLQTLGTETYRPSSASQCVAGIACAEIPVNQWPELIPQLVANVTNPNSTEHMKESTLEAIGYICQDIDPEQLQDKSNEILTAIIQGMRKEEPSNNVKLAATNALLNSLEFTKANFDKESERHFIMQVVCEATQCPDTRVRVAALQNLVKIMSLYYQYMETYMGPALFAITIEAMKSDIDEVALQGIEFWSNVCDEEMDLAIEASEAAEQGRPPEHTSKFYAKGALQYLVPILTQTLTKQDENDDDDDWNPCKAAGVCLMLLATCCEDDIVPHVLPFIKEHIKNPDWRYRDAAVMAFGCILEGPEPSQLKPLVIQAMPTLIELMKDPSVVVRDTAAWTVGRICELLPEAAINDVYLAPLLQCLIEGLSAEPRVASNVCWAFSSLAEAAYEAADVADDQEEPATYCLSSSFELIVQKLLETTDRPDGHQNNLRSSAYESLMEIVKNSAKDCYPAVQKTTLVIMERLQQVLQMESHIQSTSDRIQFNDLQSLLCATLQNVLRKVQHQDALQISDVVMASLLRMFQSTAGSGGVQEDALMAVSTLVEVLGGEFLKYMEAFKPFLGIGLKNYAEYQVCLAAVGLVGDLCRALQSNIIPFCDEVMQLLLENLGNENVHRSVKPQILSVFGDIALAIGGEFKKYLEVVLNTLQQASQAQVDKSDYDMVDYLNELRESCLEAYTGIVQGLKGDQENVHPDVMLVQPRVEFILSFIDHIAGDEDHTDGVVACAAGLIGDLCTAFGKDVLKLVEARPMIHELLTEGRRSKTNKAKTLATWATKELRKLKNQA
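FRET biosensor Rango (snurportin 1 IBB between N-terminal EYFP and C-terminal Cerulean), 50 nM in PBS/1 mM DTT/0.02% Tween-20/0.1% BSA, preincubated 5 min RT with compound; 0.125 microM importin beta added, 45 min RT, CFP/YFP FRET ratio read.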
miR-21 reporter: miR-21 reporter, rising signal | Potency, µM (titrated, usually from 38.3 µM), for the others: top-dose reporter change, positive = more light | HeLa miR-21 FLuc reporter, luciferase, 48 h | 340,000 tested, under 10 active; active = well fitted rising curve with a large enough effect; inconclusive = small, poorly fitted or top-dose-only effect; inactive = no such curve, though single readings can be large or run the other way;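 note: % of control where 0% means no effect; miR-21 action dims this reporter so a rising signal means less miR-21 action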
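HeLa cells stably expressing CMV-driven firefly luciferase with a downstream miR-21 binding sequence, endogenously expressing miR-21, were treated with titrations (up to about 40uM final) for 48 hours at 37 degree Celsius. Luciferase luminescence was read after lysis.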
Rango dissoc inh: inhibition of RanGTP-driven Rango-importin beta dissociation | O95149+P62826 | Biochemical FRET Rango-importin beta, RanGTP-induced dissociation | Potency, µM (doses to about 46.1 µM), inactives show at the highest dose activity change, negative = inhibition | 340,000 compounds, 0.071% hits | AID 540253; active means falling FRET ratio curve, often poorly fitted, with flat reads before Ran was added; inconclusive means other falling curves, or compound fluorescence or quenching; inactive means flat or rising ratio curve;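 note: potency is the fitted concentration of half-maximal effect; % of control where 0% means no effect; nearly all actives have a fitted effect of over 45% in size; -100% = wells without RanGTP and RCC1; the record marks most hits as doubtful in a second field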
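Compounds preincubate 5 min with complex of recombinant Rango and importin beta in PBS with 1 mM DTT. Ran (0.6 uM) loaded with 2 mM GTP plus 0.2 uM RCC1 starts dissociation; FRET is recorded 45 min later.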
GLA inh pH 4.5: blocks human alpha-galactosidase A at pH 4.5; P06280; 230,000 tested, under 10 active; purified enzyme, 4-MU-alpha-Gal fluorescence, pH 4.5; activity change, negative = inhibition, % at 105 µM; inconclusive = small, poorly fitted or top-dose-only inhibition, or a rising curve; inactive = flat fitted curve, though single readings scatter; no compound was filed as active;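 note: 0% = full activity with enzyme and -100% = basal without enzyme; dose as in the result columns while the protocol names 77 µM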
Starred values were filed as active, the others as inactive; ? = inconclusive; . = no result given; & = joins results of further samples.

SMILES	Rango complex inh	miR-21 reporter	Rango dissoc inh	GLA inh pH 4.5
CCOC(=O)N1CCN(CC(=O)Nc2c(C(=O)OC)[nH]c3ccc(Cl)cc23)CC1	-3.9%	22%	19%	-5
O=C(Nc1scc(-c2ccc(F)cc2)c1C(=O)O)c1ccco1	-3.7%	0%	8%	-16
O=C1N(c2ccccc2)C(c2ccc(Cl)cc2)N2CCCN12 (stereo not given)	-2.1%	-3%	-2%	16
COc1ccc(CCNC(=O)CN2C(=O)C(=O)N(C3CCCC3)C2=O)cc1OC	7.4%	.	21%	.
Cc1ccc(C(=O)CC(C(=O)O)n2cnc([N+](=O)[O-])n2)cc1 (stereo not given)	1.1%	-3%	-6%	-2
CC(=O)Nc1nc(C)c(Oc2ccccc2)c(=O)[nH]1	-0.8%	-7%	-5%	-9
Cn1c(=O)c2c(ncn2CC(=O)Nc2cc(S(=O)(=O)N3CCCCC3)ccc2O)n(C)c1=O	?	.	-11%	.
Cc1ccc(C(=O)N2CCC3(CC2)Oc2ccc(Cl)cc2C(=O)C32CC(c3ccccc3)=NO2)s1 (stereo not given)	-0.5%	-4%	14%	-12
O=C(/C=C/c1ccccc1)NCCCNC(=O)/C=C/c1ccccc1	-3.1%	-7%	-3%	0
O=C(CCN1CCCC1)Nc1cccc(Br)c1	2.3%	-6%	-1%	-2
C=CCn1c(SCc2ccc(Br)cc2F)nc2cc(C(=O)O)ccc2c1=O	0.7%	-17%	15%	.
CC(C)CCSc1nc(N2CCOCC2)c2c(c1C#N)CC(C)(C)OC2	-1.2%	-21%	-11%	-1
CCc1ccc(C(=O)C(C)OC(=O)C2COc3ccccc3O2)cc1 (stereo not given)	-2.5%	-10%	1%	6
CCOC(=O)c1oc2cc(OC(C)=O)ccc2c(=O)c1-c1ccc(OC)c(OC)c1	6.1%	-17%	-6%	-3
O=[N+]([O-])c1cccc(/C=N/NC2CCS(=O)(=O)C2)c1 (stereo not given)	3.4%	-20%	-15%	0
COc1ccc2[nH]c(-c3ccccc3)cc2c1	2.1%	-44%	7%	-6
CC(C)(C)OC(=O)N1CCN(C(=O)c2[nH]cnc2C(=O)Nc2nccs2)CC1	0.2%	.	-11%	.
COc1ccc(S(=O)(=O)Nc2ccc3cn[nH]c3c2)cc1C	0.6%	5%	4%	4
CCOc1ncccc1C(=O)OCC(=O)NCCc1ccccc1	2.4%	-4%	0%	14
COCCn1c(C)cc(C2=NNC(=Nc3ccccc3F)SC2)c1C	0.8%	6%	0%	1
CC(C)OCCCNC(=O)c1ccc2c(c1)NC(=O)c1ccccc1S2	-1.4%	18%&16%	0%	.
CN(CC(=O)Nc1ccc(F)cc1)C(=O)COC(=O)/C=C/c1ccc(OC(F)F)cc1	3.3%	.	0%	.
C=CCn1c(-c2ccc(Cl)cc2)ccc(C#N)c1=O	3.6%	-21%	-8%	-24
Cc1ccc(C#CC(C)(O)C(C)(C)C)cn1 (stereo not given)	-1.1%	-17%	-8%	-16
CCCc1cc(=O)n2nc(N3CCC(C(=O)Nc4c(F)c(F)c(F)c(F)c4F)CC3)sc2n1	-2.6%	-7%	-4%	.
CCOC(=O)/C(O)=C/c1ncc(C(F)(F)F)cc1Cl	-0.6%	0%	2%	-25
O=C(O)/C=C/C(=O)Nc1ccccc1-c1ccccc1	1.2%	1%	8%	-1
COc1cc(C(=O)OCC(=O)N2CCCCC2C)cc(NC(=O)c2cccs2)c1OC (stereo not given)	-0.6%	6%	14%	-1
O=C(COc1ccccc1)NCC(=O)N1CCCC1	1.3%	-2%	1%	.
CCc1c(O)nc(SCc2ccc(F)cc2)[nH]c1=O	-2.4%	-3%	38%	.
Cc1nnc(SCc2nnc(-c3cccs3)o2)n1Cc1ccccc1	-2.6%	-4%	-12%	8
NS(=O)(=O)c1ccc(NC(=S)NCc2ccc3c(c2)OCO3)cc1	-1.0%	1%	12%	5
c1ccc(N2CCN(c3nc4ccccc4[nH]3)CC2)nc1	0.1%	-28%	-1%	-15
O=C(CC1C(=O)NCCN1C(=O)Nc1ccc(C(F)(F)F)cc1)Nc1ccc(F)cc1 (stereo not given)	-1.3%	-14%	-13%	-9
Cc1c(NP(=O)(c2ccc(Br)cc2)c2ccc(Br)cc2)c(=O)n(-c2ccccc2)n1C	-12%	10%	1%	2
CCN(CC)c1ccc(S(=O)(=O)N2CCOCC2)cc1NC(=O)CSc1n[nH]c(N)n1	-0.7%	-1%	-4%	-4
CCOc1ccc(S(=O)(=O)N/N=C\c2ccc3c(c2)OCO3)cc1	0.3%	3%	4%	.
CCC(c1nc2ccccc2c(=O)n1CCN1CCOCC1)N1C(=O)c2ccccc2C1=O (stereo not given)	-2.2%	1%	10%	1
O=C(c1ccc2c3c(cccc13)CC2)C1CCCN(C(=O)c2ccc[n+]([O-])c2)C1 (stereo not given)	3.9%	1%	4%	-1
CC(=O)c1ccc(NC(=O)CNc2cc(S(=O)(=O)N3CCOCC3)ccc2N2CCCC2)cc1	-0.3%	.	-4%	.
O=C(CSc1c2c(nc3cc(Cl)ccc13)CCCC2)NCCCN1CCOCC1	-4.3%	24%	9%	11
COc1ccc(/C=C/c2cc(C(F)(F)F)on2)cc1	-0.1%	-18%	-10%	-15
COc1cccc(CN(CC(=O)NCc2ccc(F)cc2)C(=O)c2ccco2)c1	0.7%	6%	-3%	.
COc1ccc(S(=O)(=O)NCc2cccnc2)cc1C(=O)Nc1ccccc1	?	1%	1%	.
CCCCn1c(SCC(=O)Nc2cc(C)on2)nnc1-c1cccnc1	-3.2%	-10%	-4%	2
CNc1nc(Cl)nc(NC(C)(C)C)n1	-0.4%	-29%	-15%	5
COc1ccc(CCn2c(C)cc(C(=O)CSc3nnnn3-c3ccccc3)c2C)cc1	2.0%	1%	5%	10
CCCC(c1nnnn1Cc1ccccc1)N1CCN(c2ccccc2OC)CC1 (stereo not given)	-1.7%	1%	0%	-7
Cc1cccc(N(CC(=O)Nc2ccccc2-c2ccccc2)S(=O)(=O)c2ccccc2)c1C	-1.1%	25%	-10%	14
CCN(CC(=O)Nc1c(F)cccc1F)C(=O)c1ccc(S(=O)(=O)N2CCCC2)cc1	-3.3%	.	12%	.
Next section
SMILES	Rango complex inh	miR-21 reporter	Rango dissoc inh	GLA inh pH 4.5
COc1cccc(C(=O)NCC(C)(C)SCc2ccc(F)cc2)c1	0.2%	-5%	1%	.
CC(Sc1nnc(-c2cccnc2)n1-c1ccccc1F)C(=O)N1CCCc2ccccc21 (stereo not given)	.	1%	.	6
Cc1noc(C)c1COC(=O)[C@@H](NC(=O)c1ccccc1Cl)C(C)C	3.3%	0%	-2%	2
CCCn1c(SCC(=O)O)nc2ccccc21	6.1%	-5%	13%	-10
O=C(Nc1cccc(F)c1)Nc1ccccn1	-0.5%	-37%	-3%	4
Cc1nn(C)c(C)c1Sc1ccc(Br)cc1	0.1%	-1%	2%	3
COc1ccc(NC(=S)Nc2ccc(OCc3ccccc3)cc2)c(OC)c1	0.3%	-5%	6%	-4
CC/C(=N/NC(=O)c1ccccc1)c1ccc(OCCN2CCOCC2)cc1	1.3%	-63%	-1%	-6
Cc1coc2c(O)cc3c(c12)OC1(N2CCCCC2)C(=O)NCCCC31 (stereo not given)	?	-1%	1%	3
COc1ccc(C(=O)N(Cc2ccc(N(C)C)cc2)C2CCS(=O)(=O)C2)cc1 (stereo not given)	-1.9%	-2%	4%	-2

Random excerpt: three compounds from above
SMILES	Rango complex inh	miR-21 reporter	Rango dissoc inh	GLA inh pH 4.5
COc1cccc(C(=O)NCC(C)(C)SCc2ccc(F)cc2)c1	0.2%	-5%	1%	.
Cc1noc(C)c1COC(=O)[C@@H](NC(=O)c1ccccc1Cl)C(C)C	3.3%	0%	-2%	2
CC/C(=N/NC(=O)c1ccccc1)c1ccc(OCCN2CCOCC2)cc1	1.3%	-63%	-1%	-6

Other structures.
SMILES	Rango complex inh	miR-21 reporter	Rango dissoc inh	GLA inh pH 4.5
Cc1c(NS(=O)(=O)c2ccc(F)cc2)c(=O)n(-c2ccccc2)n1C	3.6%	-6%	-5%	.
CC(=O)N(Cc1ccccn1)Cc1ccco1	-4.1%	-5%	-18%	-7
CN(C)S(=O)(=O)N1CCN(Cc2ccccc2)CC1	-3.0%	-1%	-9%	8
COc1ccc(Oc2c(Cl)cnn(-c3ccc(F)cc3)c2=O)cc1	7.1%	15%	-3%	-5
COc1cc(OC)cc(C(=O)NCC(=O)OCc2nc3ccccc3s2)c1	0.5%	-63%	12%	10
S=C1NCCN1CC1CCN(CC2CCCC2)CC1	-4.0%	.	20%	.
Cc1cc(C)nc(OC(=O)c2ccc(Cl)cc2Cl)n1	.	-14%	.	4
O=C(Nc1ccc(C(F)(F)F)cc1)c1cccnc1N1CCOCC1	1.3%	7%	-5%	-2
CCOC(=O)N1CCN(Cc2ccccn2)CC1	-0.4%	-5%	7%	3
O=c1[nH]c(NCCO)nc2ncn(Cc3ccccc3)c12	0.6%	-1%	2%	1
O=C(Nc1cc(S(=O)(=O)N2CCOCC2)ccc1N1CCCC1)c1cc(=O)[nH]c2ccccc12	1.4%	1%	6%	12
CCOC(=O)c1ccc(NC(=O)c2cc3c(s2)CCC3)cc1	-0.3%	-31%	4%	-3

Structural class, the entries above containing an NH in an aromatic ring.
SMILES	Rango complex inh	miR-21 reporter	Rango dissoc inh	GLA inh pH 4.5
CCOC(=O)N1CCN(CC(=O)Nc2c(C(=O)OC)[nH]c3ccc(Cl)cc23)CC1	-3.9%	22%	19%	-5
CC(=O)Nc1nc(C)c(Oc2ccccc2)c(=O)[nH]1	-0.8%	-7%	-5%	-9
COc1ccc2[nH]c(-c3ccccc3)cc2c1	2.1%	-44%	7%	-6
CC(C)(C)OC(=O)N1CCN(C(=O)c2[nH]cnc2C(=O)Nc2nccs2)CC1	0.2%	.	-11%	.
COc1ccc(S(=O)(=O)Nc2ccc3cn[nH]c3c2)cc1C	0.6%	5%	4%	4
CCc1c(O)nc(SCc2ccc(F)cc2)[nH]c1=O	-2.4%	-3%	38%	.
c1ccc(N2CCN(c3nc4ccccc4[nH]3)CC2)nc1	0.1%	-28%	-1%	-15
CCN(CC)c1ccc(S(=O)(=O)N2CCOCC2)cc1NC(=O)CSc1n[nH]c(N)n1	-0.7%	-1%	-4%	-4
O=c1[nH]c(NCCO)nc2ncn(Cc3ccccc3)c12	0.6%	-1%	2%	1
O=C(Nc1cc(S(=O)(=O)N2CCOCC2)ccc1N1CCCC1)c1cc(=O)[nH]c2ccccc12	1.4%	1%	6%	12

Some of the compounds tested (hit frequency here may not be typical).
